# Compound activity (PubChem BioAssay)
# Marburg entry inh – Marburg virus entry inhibition | Potency, µM (doses to about 37.8 µM), without a hit: top-dose activity change, negative = inhibition, most hits filed as inhibitors | Marburg virus pseudotyped entry inhibition, cell reporter; control for the full effect not named in the record; about a third of the inactives were read at about 46 µM | hit rate 1.8% among 300,000 | AID 540276; active = well fitted inhibition curve with a large enough effect; inconclusive = small, poorly fitted or top-dose-only effect, or effect the other way; inactive = flat fitted curve, though single readings scatter; tested in HEK293 cells; about a fifth of its hits are not listed in these tables; also: % is scaled to controls: 0 for no effect and ±100 for the full control effect; luciferase read-out
# StopGo reporter – lowers the luciferase signal of an FMDV 2A StopGo reporter; Potency, µM (series often up to 57.9 µM), without a hit: top-dose signal change, negative = less light; hit rate 1.2% among 410,000; AID 1159524; human cells with a luciferase reporter of 2A StopGo recoding; control for the full effect not named in the record; active = well fitted falling curve with a large enough effect; inconclusive = small, poorly fitted or top-dose-only effect; inactive = no such curve, though single readings can be large or run the other way; tested in HEK293T cells; also: % is scaled to controls: 0 for no effect and ±100 for the full control effect; nearly all actives have a fitted effect of over 45% in size; luciferase light after 4 h
# SARS PLP yeast – SARS-CoV PLP inhibition in yeast; hit rate 0.19% among 330,000; S. cerevisiae expressing SARS-CoV PLpro, growth rescue; control for the full effect not named in the record; Potency, µM (top dose mostly 32.9 µM), for the others: at the highest dose activity, positive = growth rescue; also: 0% is about no effect; nearly all actives have a fitted effect of over 55% in size; growth read by luminescence after 48 h
# Cruzain noTriton – inhibitors of Trypanosoma cruzi cruzain without detergent. hit rate 2.3% among 200,000. AID 1476. P25779. Potency, µM, for inactives: max response, negative = inhibition, actives largely listed as inhibitors. purified cruzain, Z-FR-AMC fluorescence, no detergent; active = well fitted curve in the direction sought with a large enough effect; inconclusive = small, poorly fitted or top-dose-only effect, or another doubt; inactive = no such curve, though single readings can be large; an effect the other way counts as inactive or inconclusive;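 also: plate controls were enzyme without inhibitor for no effect and buffer without enzyme for full effect; nearly all actives have a fitted effect of over 40% in size; top concentration of the series not given in the record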
# Target sequence (P25779 123-467 limits assumed): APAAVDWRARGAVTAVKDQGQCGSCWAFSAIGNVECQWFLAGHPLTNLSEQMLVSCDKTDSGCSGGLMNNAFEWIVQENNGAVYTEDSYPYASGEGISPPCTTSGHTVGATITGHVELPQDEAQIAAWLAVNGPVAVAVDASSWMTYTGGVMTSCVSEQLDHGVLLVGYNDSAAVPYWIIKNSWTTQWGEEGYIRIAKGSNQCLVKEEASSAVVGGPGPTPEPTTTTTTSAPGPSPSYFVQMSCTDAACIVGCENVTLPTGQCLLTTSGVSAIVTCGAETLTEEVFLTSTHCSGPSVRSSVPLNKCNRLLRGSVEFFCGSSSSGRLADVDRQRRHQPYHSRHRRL
#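 Purified cruzain at 1.5 nM, pre-incubated 15 min with compound at room temperature in 100 mM sodium acetate pH 5.5, 5 mM DTT, 0.00005% Triton X-100. Reaction started with 2 uM Z-FR-AMC; AMC fluorescence increase over 60 s gives rate.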
# Cruzain inh Det – blocks cruzain activity in presence of Triton detergent. P25779. purified cruzain, Z-FR-AMC fluorescence, 0.01% Triton. Potency, µM, for inactives: max response, negative = inhibition, usual class: inhibitors. hit rate 0.43% among 200,000; active = well fitted curve in the direction sought with a large enough effect; inconclusive = small, poorly fitted or top-dose-only effect, or another doubt; inactive = no such curve, though single readings can be large; an effect the other way counts as inactive or inconclusive;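 also: plate controls were neutral wells for no effect and buffer without enzyme for full effect; nearly all actives have a fitted effect of over 40% in size; top concentration of the series not given in the record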
#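 Detergent-containing run (0.01% Triton X-100) in acetate buffer pH 5.5 with 5 mM DTT: enzyme at 1.5 nM final, 15 min compound preincubation at room temperature, then 2 uM Z-FR-AMC substrate. Activity taken as 60 s fluorescence increase at 360/450 nm.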
# RE007 growth inh – less growth of the S. pombe RE007 Vpr strain. S. pombe RE007 Vpr strain, BacTiter-Glo ATP luminescence, 24 h; control for the full effect not named in the record. Potency, µM (titrated, usually from 92.2 µM), for the others: at the highest dose activity change, negative = less growth. hit rate 0.21% among 360,000. AID 651644; active = well fitted falling curve with a large enough effect; inconclusive = small, poorly fitted or top-dose-only effect; inactive = no such curve, though single readings can be large or run the other way;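 also: % is scaled to controls: 0 for no effect and ±100 for the full control effect; nearly all actives have a fitted effect of over 50% in size; the assay follows cell death caused by Vpr and the record does not say whether a fall means rescue or toxicity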
#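 Fission yeast RE007 carrying one integrated HIV-1 vpr copy, seeded at OD 0.01 in PMG+AL medium with 23 nL pinned compound. Grown 24 h at 30 degrees; viability read by BacTiter-Glo luminescence after 5 min.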
# LASV entry inh – Lassa virus entry inhibition | hit rate 1.2% among 300,000 | Potency, µM (highest dose often 37.9 µM), for inactives: at the top dose activity change, negative = inhibition, actives largely listed as inhibitors | Lassa virus pseudotype entry inhibition, cell reporter; control for the full effect not named in the record; active means well fitted inhibition curve with a large enough effect; inconclusive means small, poorly fitted or top-dose-only effect, or effect the other way; inactive means flat fitted curve, though single readings scatter; tested in HEK293 cells; also: % is scaled to controls: 0 for no effect and ±100 for the full control effect; nearly all actives have a fitted effect of over 50% in size; luciferase read-out
# NS1 inh – inhibitors of influenza NS1 protein function; S. cerevisiae slowed by influenza A NS1, growth recovery by OD600; Potency, µM (highest dose often 46.1 µM), for the others: top-dose activity, positive = more growth; hit rate 0.4% among 270,000; also: actives are rising curves; nearly all actives have a fitted effect of over 50% in size
#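 Compounds were scored for reversing the slow growth caused by influenza A NS1 in S. cerevisiae, measured by optical density at 600 nm. Assay medium contained 2% galactose at pH 6.0; NS1-free yeast of the same strain were the positive control.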
# Numbers without * were called inactive; u = inconclusive; x = no result given; & = joins results of further samples; [ ] = another dose, or the depositor's remark. Unless noted, calls follow the shape of the dose curve; as a rule, active means well fitted rising curve with a large enough effect; inconclusive means small, poorly fitted or top-dose-only effect; inactive means no such curve, though single readings can be large or run the other way. Potency is read from the fitted curve at half-maximal effect.
SMILES,Marburg entry inh,StopGo reporter,SARS PLP yeast,Cruzain noTriton,Cruzain inh Det,RE007 growth inh,LASV entry inh,NS1 inh
CCN(CC)CCNC(=O)c1ccc(NC(=O)CC(NC(=O)c2ccccc2Cl)c2ccccc2)cc1 (centres undefined),-21%,2%,1%,x,x,7%,17%,-10%
CCCCCc1ccc(-c2ccc(C(=O)O)cc2)nc1,u,u,-63%,u,-7.1%,u,u,-51%
COc1ccc(Cl)cc1NC(=O)CN(C)CC(=O)Nc1ccc(S(N)(=O)=O)cc1,u,16%,7%,x,x,13%,1%[46.1 µM],2%
CCCCS(=O)(=O)Nc1ccc(C)cn1,4%,29%,-18%,5%,-28%,-6%,0%,-1%
COC(=O)C1(C)CN(S(=O)(=O)c2ccc(C)cc2)c2cc(OC)ccc2C1=O (centres undefined),1%,u,-16%,-15%,-4.4%,-2%,u,-8%
O=C(C[n+]1cccc(C(=O)N/N=C/c2cccc([N+](=O)[O-])c2)c1)c1ccccc1,13%,15%,2%,x,x,-21%,9%[46.1 µM],x
CCc1ccc(N(CC(=O)NC2CCCC2)C(=O)CCC(=O)Nc2cc(C)on2)cc1,-5%[46.1 µM],10%,14%,x,x,26%,-18%,-11%
COC(=O)C(O)(CC(=O)Nc1ccc(OC(F)(F)F)cc1)C(F)(F)F (centres undefined),1%,x,0%,5%,1.2%,-14%,1%,0%
Cc1cc(Nc2ccccc2)n(-c2ccc(C(=O)O)cc2)n1,1%[46.1 µM],-12%,1%,x,x,2%,7%[46.1 µM],x
CC1(C)CC(=O)C2=C(C1)c1c(ccc3ncccc13)NC2c1cccs1 (centres undefined),u,0%,2%,-2%,-5.8%,-15%,u,14%
O=C(Nc1cccc(C(=O)Nc2ccc(F)cc2F)c1)c1ccccc1,x,27%,-3%,x,x,0%,x,-2%
O=C(c1ccc(Cl)c(S(=O)(=O)N2CCOCC2)c1)N1CCN(Cc2ccccc2)CC1,-1%,-15%,-3%,14%,1.2%,-2%,-20%,-22%
O=C(Cc1ccc(Cl)cc1)c1ccc(O)cc1,x,70%[activator],-3%,x,x,-9%,x,-4%
COc1ccccc1N(C)S(=O)(=O)c1ccc(Cl)c(C(=O)NC2=NCCS2)c1,-25%[46.1 µM],-21%,-4%,x,x,6%,-19%,x
O=C(O)c1ccc(-n2c(O)c(C=C3N=c4ccccc4=N3)sc2=S)cc1,8%,-9%,1%,x,x,-6%,x,-10%
CC(C)Oc1cccc(C(=O)Nc2ncn[nH]2)c1,-3%[46.1 µM],25%,-6%,x,x,1%,30%[46.1 µM],-11%
COc1ccccc1Cc1noc(C(C)(C)NC(=O)c2ccccc2)n1,10%,0%,-4%,14%,4.2%,9%,0%,0%
CC(=O)c1ccc(NC(=O)CSc2c(C(C)C)cnc3c2c(=O)n(C)c(=O)n3C)cc1,x,3%,x,-14%,1.7%,x,0%[46.1 µM],x
CC(C)c1cc(C(=O)N2CCCC(C(=O)c3ccc4ccccc4c3)C2)on1 (centres undefined),-19%[46.1 µM],-10%,-1%,x,x,-1%,-20%[46.1 µM],-3%
Cn1c(-c2ccc(F)cc2)cnc1NCc1ccc(F)cc1,1%,3%,-3%,2%,6.2%,-3%,-2%,-14%
CCOc1ccc(S(=O)(=O)NC2CCCC2)cc1C,u,25%,-5%,x,x,-2%,-2%[46.1 µM],-21%
COc1ccc(NC(=O)CCCC(=O)OCC(=O)c2cccc(OC)c2)cc1,-2%[46.1 µM],-10%,x,x,x,7%,u,0%
CCOC(=O)c1sc(=S)sc1SCc1cccc(C(F)(F)F)c1,0%,0%,6%,-5%,-8.4%,-7%,-1%,17%
Fc1cccc2sc(Nc3nc4cc5c(cc4s3)OCO5)nc12,u,27%,-41%,u,-5.9%,-9%,u,-10%
O=C(O)CC/C(=C\c1ccc(N2CCOCC2)c([N+](=O)[O-])c1)c1nc2ccccc2s1,x,9%,-2%,x,x,0%,x,10%
# The list goes on.
SMILES,Marburg entry inh,StopGo reporter,SARS PLP yeast,Cruzain noTriton,Cruzain inh Det,RE007 growth inh,LASV entry inh,NS1 inh
CSc1nc(SCC(=O)O)c2c3c(sc2n1)COC(C)(C)C3,x,-10%,0%,x,x,-10%,x,9%
Cc1cc(NS(=O)(=O)c2ccc(NC(=O)CCCOc3ccc(Cl)cc3)cc2)no1,20%&20%,12%,4%,-15%,-10%,-6%,0%,-2%
CC(C(=O)NC(C)(C)C)N(C(=O)CS(=O)CC(=O)Nc1ccc(F)cc1)C1CCCC1 (centres undefined),1%[46.1 µM],-5%,0%,x,x,8%,2%,2%
COc1ccc(/C=C(\NC(=O)c2cccs2)C(=O)Nc2cccc3ccccc23)cc1OC,-38%,21%,2%,u,-9.6%,-1%,8%,u
Cc1ccc2c(=O)cc(C(=O)Nc3sc4c(c3C(=O)NCC3CCCO3)CCCC4)oc2c1 (centres undefined),8%[46.1 µM],-13%,x,-14%,-1.8%,x,7%[46.1 µM],x
COc1ccc(C2C(C(C)=O)=C(O)C(=O)N2CCc2ccccc2)c(OC)c1 (centres undefined),13%,11%,-3%,5%,-4.3%,-3%,-5%,-18%
O=c1[nH]c(SCc2c(F)cccc2Cl)nc2c1CCC2,22%[46.1 µM],-1%,x,0%,-6.0%,x,0%[46.1 µM],x
CC(CCc1ccccc1)NC(=O)CN1CCc2ccccc2C1 (centres undefined),4%[46.1 µM],19%,1%,x,x,-3%,-21%,x
COc1ccc(OC)c(C2CC(=O)Nc3c2c(=O)[nH]c2ncnn32)c1 (centres undefined),-9%&14%[46.1 µM],-6%&-11%,-1%,0%,0.6%,-9%,u,-5%
COc1cccc(CNC(=O)C2CCN(S(=O)(=O)c3ccc(Br)s3)CC2)c1,7%[46.1 µM],-15%,-2%,x,x,4%,-10%[46.1 µM],-9%
O=C1CC(N2CCN(c3ccc(Cl)cc3)CC2)C(=O)N1c1ccc(F)cc1 (centres undefined),x,-29%,-12%,x,x,3%,x,-5%
O=C1C2C(C(=O)N1c1ccccc1)N1CCCN1C2c1ccccc1 (centres undefined),6%[46.1 µM],-3%,-5%,x,x,-1%,-10%,x
O=C(NCc1ccc2c(c1)OCO2)c1ccccc1Cl,10%[46.1 µM],14%,x,x,x,2%,6%[46.1 µM],x
OCCNCCCOc1ccc(Cl)cc1Br,21µM*,-26%,-12%,-4%,-6.9%,-3%,-7%,3%
CC(C)CCNC(=O)NC(=O)COc1c(F)c(F)cc(F)c1F,2%[46.1 µM],13%,2%,-1%,-2.8%,8%,21%,-4%
O=C(N/N=C\c1ccccn1)C1c2ccccc2Oc2ccccc21,u,-18%,-4%,x,x,5%,-1%,-5%
Cc1cc(C)cc(N(C(C)C(=O)N2CCOCC2)S(C)(=O)=O)c1 (centres undefined),8%[46.1 µM],-8%,-1%,x,x,3%,19%,4%
O=C(CC(c1ccccc1)(c1ccccc1)c1ccccc1)N[C@@H](Cc1ccccc1)C(=O)O,x,-18%,0%,x,x,1%,x,6%
CCc1nc2nc(C)c(NS(=O)(=O)c3cccs3)c(=O)n2[nH]1,u,20%,3%,x,x,-5%,0%[46.1 µM],-7%
O=S(=O)(/N=S1\CC=CCN1S(=O)(=O)c1ccccc1)c1ccccc1 (centres undefined),u,-27%,x,x,x,7%,u,x
O=C(Cn1ncc2ccccc21)N1CCN(c2cccc(C(F)(F)F)c2)CC1,-27%,x,24%,-13%,-3.1%,15%,1%,-8%
Cc1ccccc1C(=O)NC1(C(F)(F)F)C(=O)Nc2c1c(=O)[nH]c(=O)n2CCc1ccccc1 (centres undefined),x,-5%,x,1%,0.5%,x,u,x
Cc1ccc(N2C(=O)c3n[nH]c(C)c3C2c2ccc(Cl)cc2)cc1 (centres undefined),u,35%[activator],x,11%,-12%,x,-13%[46.1 µM],x
Cc1ccc(N(C)C(=O)C2CCN(S(=O)(=O)c3ccc4c(c3)CCCN4C(=O)C3CCC3)CC2)cc1,x,u,x,u,-1.6%,x,u,x
COCCN(C(=O)COC(=O)c1cc(C)oc1C)c1c(N)n(Cc2ccccc2)c(=O)[nH]c1=O,11%,-23%,-6%,x,x,1%,-2%[46.1 µM],x
# Next entries follow:
SMILES,Marburg entry inh,StopGo reporter,SARS PLP yeast,Cruzain noTriton,Cruzain inh Det,RE007 growth inh,LASV entry inh,NS1 inh
CC(Oc1cccc(Cl)c1)C(=O)N1CCCN(C)CC1 (centres undefined),x,-20%,-5%,x,x,12%,x,8%
CC(C)NC(=O)CSc1nnc(COc2ccccc2Cl)o1,-1%[46.1 µM],-6%,-1%,-5%,-2.2%,-2%,10%,1%
Cc1c(C(=O)N(C)c2ccc(Cl)cc2)cnn1-c1ccccc1,8%[46.1 µM],14%,1%,x,x,10%,-16%[46.1 µM],-12%
O=C(Cn1nc(Cc2ccncc2)c2ccccc2c1=O)N1CCc2ccccc2C1,0%,u,-2%,4%,-3.5%,-1%,x,-10%
O=C(Cc1ccc([N+](=O)[O-])cc1)NNC(=O)c1cccs1,u,-5%,0%,x,x,23%,x,2%
O=C(CSc1nnc(-c2ccc(F)cc2)c2ccccc12)Nc1ccccc1Cl,16%,-3%,-13%,16µM*,-4.9%,29%,u,0%
Cc1ccc(-n2ncc3c(NC4CCCCC4)ncnc32)cc1,x,-50%,x,6%,0.3%,x,27%[46.1 µM],x
COc1cccc(/C=C2\SC(=S)N(CCC(=O)NCCc3ccc(O)cc3)C2=O)c1,u,0%,0%,x,x,1%,u,2%
NS(=O)(=O)c1ccc(Nc2ccc([N+](=O)[O-])c3nonc23)cc1,x,0%,1%,x,x,-8%,x,7%
COc1ccc(NC(=O)Nc2ccccc2OCc2cc(=O)n3ccccc3n2)c(OC)c1,x,12%,x,29%,2.0%,x,10%[46.1 µM],x
CCOc1ccccc1CNC(=O)c1ccc2c(c1)sc1nc(-c3cccc(OC)c3)cn12,x,5%,x,-8%,-2.8%,x,-2%[46.1 µM],x
CC(=NCC1CCNCC1)C1=C(O)CC(C)(C)CC1=O,0%,-3%,-3%,-8%,-1.3%,0%,-2%,6%
Cc1ccccc1NC(=O)CSc1nc2ccccc2o1,11%,14%,8%,21%,7.2%,-3%,7%,-8%
CCN(CC)C(=O)COc1ccc2c3c(c(=O)oc2c1C)CCCC3,3%,-27%,-2%,x,x,-10%,-20%,-28%
Cc1nc2ccccc2cc1C(=O)N/N=C/c1cccs1,-11%,-6%,-13%,3%,-6.2%,-13%,4%,5%
